# Bioassay records: PubChem, National Center for Advancing Translational Sciences (NCATS)
# VDR inhibitor – vitamin D3 receptor (human) inhibition. P11473. 0.93% of 400,000 active. Potency, µM, without a hit: max response, negative = inhibition, hits mostly inhibitors. VDR-SRC2-3 peptide fluorescence polarization, 2 h; active = well fitted inhibition curve with a large enough effect; inconclusive = small, poorly fitted or top-dose-only effect, or another doubt; inactive = no such curve, though single readings can be large or run the other way; also: series mostly up to about 120 µM
# Target sequence (P11473 whole entry, looked up): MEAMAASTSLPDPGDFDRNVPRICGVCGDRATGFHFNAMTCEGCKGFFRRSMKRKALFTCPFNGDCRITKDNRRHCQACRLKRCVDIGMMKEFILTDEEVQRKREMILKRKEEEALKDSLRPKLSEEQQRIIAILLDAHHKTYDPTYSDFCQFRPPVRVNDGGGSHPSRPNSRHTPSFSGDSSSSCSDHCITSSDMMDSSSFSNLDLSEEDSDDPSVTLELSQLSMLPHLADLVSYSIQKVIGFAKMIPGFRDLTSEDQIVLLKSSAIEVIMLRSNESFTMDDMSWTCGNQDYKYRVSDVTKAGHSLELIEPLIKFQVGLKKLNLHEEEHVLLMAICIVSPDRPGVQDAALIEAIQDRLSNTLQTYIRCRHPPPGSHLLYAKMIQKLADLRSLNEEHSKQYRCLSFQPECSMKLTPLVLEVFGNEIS
#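 Fluorescence polarization assay of small-molecule disruption of VDR binding to coregulator peptide SRC2-3. Compounds and controls pin-transferred, then read after 2 h incubation at ambient room temperature.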
# An asterisk follows results filed as active; ? = inconclusive. % is scaled to controls: 0 for no effect and ±100 for the full control effect; potency is read from the fitted curve at half-maximal effect.
# Sample of the layout (7 entries):
SMILES,VDR inhibitor
Cc1ccc(C2CCN(C(=O)c3cnn(-c4ccc(C)c(C)c4)c3C3CCN(C(=O)OC(C)(C)C)CC3)C2)cc1 (configuration not stated),3%
Cc1cccc(C(=O)Nc2ccc(C(=O)/C=C/c3cccs3)cc2)c1,5%
Fc1ccccc1-c1nc(-c2ccncc2)no1,-12%
CN(c1ccccc1C(=O)Nc1ccc(CC#N)cc1)S(=O)(=O)c1ccccc1,4%
Clc1ccc(OCCCn2cncn2)cc1Cl,-8%
Cn1cccc1/C=C1\SC(=S)N(NC(=O)c2ccccc2Cl)C1=O,-9%
CC1CCN(S(=O)(=O)c2ccc(C(=O)NCc3ccc4c(c3)OCO4)cc2)CC1,10%

# Main list (from the top)
SMILES,VDR inhibitor
Cc1ccc(C2CCN(C(=O)c3cnn(-c4ccc(C)c(C)c4)c3C3CCN(C(=O)OC(C)(C)C)CC3)C2)cc1 (configuration not stated),3%
Cc1cccc(C(=O)Nc2ccc(C(=O)/C=C/c3cccs3)cc2)c1,5%
Fc1ccccc1-c1nc(-c2ccncc2)no1,-12%
CN(c1ccccc1C(=O)Nc1ccc(CC#N)cc1)S(=O)(=O)c1ccccc1,4%
Clc1ccc(OCCCn2cncn2)cc1Cl,-8%
Cn1cccc1/C=C1\SC(=S)N(NC(=O)c2ccccc2Cl)C1=O,-9%
CC1CCN(S(=O)(=O)c2ccc(C(=O)NCc3ccc4c(c3)OCO4)cc2)CC1,10%
O=C(Nc1ccc2nc(SCCOc3ccccc3)sc2c1)c1ccc2c(c1)OCO2,10%
Cc1cc2c(c(=O)n1CC1CCCO1)C(c1ccc3c(c1)OCO3)C(C#N)=C(N)O2 (configuration not stated),11%
CC1CCC(N2CC(=O)N(C3CCCC3)C(c3ccc(Cl)cc3)C2=O)CC1 (configuration not stated),-6%
Cc1noc(/C=C/c2ccco2)c1S(=O)(=O)N1CCC(C(=O)N(C)Cc2ccccc2)CC1,9%
O=S(=O)(NC1CCCC1)c1ccc(S(=O)(=O)N2CCN(c3ccccc3)CC2)cc1,8%
COc1ccc(C(=O)N2CCC[C@@]3(CCN(c4ccccc4)C3)C2)cc1,56µM*
CCOC(=O)N1CCN(C(=O)Cc2ccccc2OC)CC1,4%
COc1ccc(C(NC(=O)N2CC(C)OC(C)C2)C(Cl)(Cl)Cl)cc1F (configuration not stated),-4%
O=S(=O)(c1ccccc1)c1nc(Nc2ccccc2N2CCOCC2)sc1Cl,0%
CC1CC(=O)Nc2ccccc2N1S(=O)(=O)c1ccccc1 (configuration not stated),?
Cc1ccccc1-n1nc2c(c1NC(=O)c1ccc(S(=O)(=O)N(C)C)cc1)CSC2,3%
COCCCNC(=O)C1CCCN(S(=O)(=O)c2cccc3nsnc23)C1 (configuration not stated),-18%
O=C(CC1NC(=O)NC1=O)NC1(C(=O)NC2CCCCC2)CCCCC1 (configuration not stated),-1%
COc1ccccc1C(=O)COC(=O)CCNS(=O)(=O)c1ccc(C)c(C)c1,-5%
Fc1ccccc1-c1csc(=Nc2cccnc2)n1CCCn1ccnc1,3%
CC(N=Cc1ccccc1O)c1ccccc1 (configuration not stated),-14%
COc1ccc(CN2CCC(=O)N([C@H](CO)c3ccccc3)CC2)cc1,-4%
Cc1c(C(=O)OCC(=O)Nc2ccc(C(=O)N(C)C)cc2)oc2ccccc12,2%

# Additional compounds.
SMILES,VDR inhibitor
Cc1ccc(-n2c(=O)c3sccc3n(Cc3cc(=O)n4cc(Cl)ccc4n3)c2=O)cc1F,-14%
NC(=O)c1cc([N+](=O)[O-])ccc1NCc1ccc(O)cc1,-11%
CCN1C(=O)[C@H]2[C@@H](c3ccc(-c4ccc(F)cc4)c(OC)c3)N3CCCC[C@@]3(C(=O)OC)[C@H]2C1=O,-23%
Fc1ccc(NC(=S)N2CCCC2)cc1,-1%
O=C(NCCSc1c(-c2ccc(F)cc2)[nH]c2ccccc12)c1ccc(S(=O)(=O)N2CCOCC2)cc1,6%
COC(=O)c1c(Cl)c(Cl)c(C(=O)OC)c(Cl)c1Cl,-3%
C=CCN(Cc1nc(-c2ccc(OC)cc2)no1)C(=O)c1ccc2c(c1)OCO2,-1%
Cc1ccc(NS(=O)(=O)c2ccc(CCC(=O)NCCCOC(C)C)cc2)cc1,-12%
C=CCn1c(C(C)NC(=O)c2ccccc2C)n[nH]c1=S (configuration not stated),-13%
O=C1N(Cc2cccnc2)C[C@@H]2C[C@@H](c3ccc4nsnc4c3)N3CCC[C@@]123,-2%
COc1cc(OC)cc(OC)c1,6%
Cc1ccc(S(=O)(=O)NNC(=O)C2CC=CCC2C(=O)O)cc1 (configuration not stated),-23%
COC(=O)C1=C(C)N(Cc2ccccc2)C(=O)N[C@H]1CCc1ccccc1,-9%
O=C(NCC(=O)N(CCc1ccccc1)C(C(=O)NC1CCCCC1)c1ccncc1)c1ccco1 (configuration not stated),4%
CCN(C(=O)CSc1nnc(-c2cccc(Cl)c2)n1N)c1c(N)n(Cc2ccccc2)c(=O)[nH]c1=O,3%
COc1ccc(-n2nnnc2SCC(=O)NNC(=O)c2ccc([N+](=O)[O-])cc2)cc1,-3%
COc1ccc(S(=O)(=O)N2CCCC2CNC(=O)C(=O)NC2CC2)cc1 (configuration not stated),2%
CC(C)(C)NC(=O)Cn1c(Cl)nc2ccccc21,2%
CC(=O)Nc1cc2c(ccc3ccccc32)oc1=O,-8%
O=C(NCc1ccccc1F)c1sc2ncccc2c1-n1cccc1,-6%
Cc1ccc2oc(=O)c3cnn(CC(=O)NCCN4CCOCC4)c3c2c1,-17%
CCC1CCCCN1Cc1cn2c(-c3ccc(Br)cc3)nnc2s1 (configuration not stated),-8%
O=[N+]([O-])c1cccc(Oc2cnccn2)c1,-3%
COC(=O)c1ccc(NC(=O)c2nc(S(=O)(=O)Cc3cccc(C)c3)ncc2Cl)cc1,20µM*
Cc1cccc(NC(=O)NC(C)C(c2ccccc2)N2CCN(C)CC2)c1 (configuration not stated),-10%

# Sorted by value in VDR inhibitor (highest first): some entries from above.
SMILES,VDR inhibitor
O=C(NCC(=O)N(CCc1ccccc1)C(C(=O)NC1CCCCC1)c1ccncc1)c1ccco1 (configuration not stated),4%
O=C1N(Cc2cccnc2)C[C@@H]2C[C@@H](c3ccc4nsnc4c3)N3CCC[C@@]123,-2%
Cc1cccc(NC(=O)NC(C)C(c2ccccc2)N2CCN(C)CC2)c1 (configuration not stated),-10%

# Following part:
SMILES,VDR inhibitor
CCn1c(N2CCN(C(=S)NC)CC2)nc2ccccc21,-10%
Cc1nc(SCc2nc3c(C)cccc3[nH]2)c2oc3ccccc3c2n1,-12%
CCN(CC(=O)Nc1ccccc1C(F)(F)F)C(=O)CCOc1ccc(C)cc1,-16%
COC(=O)C1CCN(CC(=O)Nc2cc(C)c3c(=O)oc4ccccc4c3n2)CC1,-9%
Cc1oc2ncn(C)c(=O)c2c1C(=O)N1CCN(c2ccccc2F)CC1,-7%
COc1ccc(C2c3ccc(O)cc3Oc3ncn(CC(C)C)c(=N)c32)cc1 (configuration not stated),14%
COc1nc(N2CCCCCC2)nc(N2CCCCCC2)n1,-17%
CN(C)c1ccc(P(=O)(OCc2ccccc2)C(O)c2ccc(Cl)cc2)cc1 (configuration not stated),9%
COc1cccc(NC(=S)N2CCc3cc(OC)c(OC)cc3C2COc2ccc3c(C)cc(=O)oc3c2)c1 (configuration not stated),6%
CCOC(=O)c1ccc(NC(=O)Nc2ccc(S(N)(=O)=O)cc2)cc1,-8%
Cc1ccc(Cl)cc1NC(=O)Cn1c(=O)n(C(C)C)c(=O)c2oc3ccccc3c21,-13%
CCOc1ccc(C2CC(=O)NC(SC)=C2C#N)cc1 (configuration not stated),21%
Cc1ccc(-c2cc(C(F)(F)F)n3nc(-c4cccc(Br)c4)cc3n2)cc1,-10%
COc1ccc(-c2c(=O)n(OCc3ccccn3)c3ccccc3[n+]2[O-])cc1OC,-7%
CCOC(=O)c1c(C)c(C(=O)NC(C)COC)c(C)n1C (configuration not stated),-7%
Cc1nc2ncnn2c(C)c1CCC(=O)Nc1csc(N)n1,-10%
CN(C)c1cc(-c2ccc(Cl)cc2Cl)oc(=O)c1Cl,-1%
CN1c2ccccc2C2(C)CCCC3=Cc4cc([N+](=O)[O-])cc([N+](=O)[O-])c4OC312 (configuration not stated),-9%
CC(CC(=O)c1ccc(F)cc1)N1CCN(c2ccccc2)CC1 (configuration not stated),?
COc1ccc(-n2nc3c(c2NC(=O)c2c(-c4ccccc4Cl)noc2C)CS(=O)(=O)C3)cc1,-3%
Cc1c(C=O)c2ccccn2c1C(=O)c1ccccc1Cl,-11%
CC1=C(C(N)=O)C(c2cccs2)NC(=O)N1 (configuration not stated),15%
O=C(CSc1ncc(CO)n1Cc1ccc(Cl)cc1)NCc1ccc(F)cc1,4%
O=C(C/C=N\OCc1ccc([N+](=O)[O-])cc1)Nc1ccc(Cl)cc1,-10%
Cc1cc(Br)ccc1NC(=O)CNC(=O)c1cnn(C)c1,-15%

# (further entries)
SMILES,VDR inhibitor
COCCNc1nc2ccccc2n2cnnc12,1%
O=[N+]([O-])c1cccc(-c2ccc(SCc3cccnc3)nn2)c1,0%
Cc1onc(-c2ccccc2Cl)c1C(=O)N1CCN(c2ncccn2)CC1,9%
COc1ccc(/C(N)=N/OC(=O)c2ccc(C)c([N+](=O)[O-])c2)cc1OC,-2%
Cc1ccc(-c2csc(C3C(N)=NC(S)=C(C#N)C34CCCCC4)n2)cc1 (configuration not stated),?
COC(=O)c1ccc(NCc2c(O)ccc(O)c2Br)cc1Cl,?
C=CCOC(=O)C1=C(C)NC(SCC(N)=O)=C(C#N)C1c1ccc(C)cc1 (configuration not stated),-8%
CCSc1nc(C)c(C(C)=O)cc1C#N,2%
CCCCOC(=O)Nc1nnc(CCOCC)s1,-17%
NS(=O)(=O)c1ccc(CCNC(=O)COC(=O)CN2C(=O)C3CCCCC3C2=O)cc1 (configuration not stated),?
CCOc1ccc(CCNC(=O)c2cn(C)c3ccc(S(=O)(=O)N4CCCCC4)cc3c2=O)cc1OCC,2%
COc1ccc(-c2noc(CNC(=O)CCN3C(=O)[C@H]4CC=CC[C@H]4C3=O)n2)cc1,-15%
CN(CC(=O)Nc1ccc(F)cc1)C(=O)c1cc(-c2cccs2)nn1-c1ccccc1,2%
CN(C1CCS(=O)(=O)C1)S(=O)(=O)c1cccs1 (configuration not stated),-21%
Cc1c(C(=O)O)nnn1-c1nonc1N,-10%
Cc1cccc(NC(=O)c2nc[nH]c2C(=O)NCCN(CCNC(=O)c2[nH]cnc2C(=O)Nc2cccc(C)c2)CCNC(=O)c2[nH]cnc2C(=O)Nc2cccc(C)c2)c1,-10%
COc1ccc(NS(=O)(=O)c2ccc(C)c(C(=O)OC(C)C(=O)N3CCOCC3)c2)cc1 (configuration not stated),7%
Cn1c2ccccc2c2cnn(CC(=O)Nc3ccc(Cl)cc3)c(=O)c21,6%
COc1nn(C(C)C(=O)N2N=C(C(F)F)CC2(O)C(F)F)cc1[N+](=O)[O-] (configuration not stated),4%
Cc1ccccc1C(=O)N/N=C/c1ccsc1C,-7%
CCCCCCCCCc1nc2sc3c(c2c(=O)n1NC(=O)c1ccccc1[N+](=O)[O-])CC(C)(C)OC3,-9%
O=C(c1cccnc1)N1CCN(Cc2cccc(Br)c2)CC1,-8%
Cc1ccc(S(=O)(=O)NNC(=O)Nc2ccc([N+](=O)[O-])cc2)c(C)c1,-13%
COc1ccc(CCNC(=O)COc2ccc(N(C)S(=O)(=O)c3ccc(C)cc3)cc2)cc1OC,-7%
COc1cc(OC)c(C(=O)OCN2C(=O)c3ccccc3C2=O)cc1OC,-1%

# Further structures
SMILES,VDR inhibitor
COCCCNS(=O)(=O)c1ccc(Cl)c(C(F)(F)F)c1,15%
C=C(C)COC(=O)C1CC2OC2CC1C(=O)OCC(=C)C (configuration not stated),-17%
CC1CCCN(S(=O)(=O)c2ccc(S(=O)(=O)N3CCCN(Cc4ccccc4)C3)cc2)C1 (configuration not stated),2%
O=C(Cn1ncc2c(=O)oc3ccccc3c21)Nc1cc(F)ccc1F,-14%
Cc1cccc(COCCN2CCN(S(=O)(=O)c3ccccc3)CCC2=O)c1,-15%
S=C(Nc1ccc(Oc2ccccc2)cc1)NC1CCCC1,-29%
CNC(=O)C1CC(=O)N(CCc2ccc(OC)cc2)C(=Nc2ccc(OC)cc2)S1 (configuration not stated),10%
O=C(COc1ccc2ccc(=O)oc2c1)NC1CCCCC1,10%
CN(C)S(=O)(=O)c1cccc(C(=O)NCc2ccco2)c1,5%
CCc1ccc(CN(C)CC(=O)Nc2ccccc2[N+](=O)[O-])cc1,0%
Cc1nc(C)n(C(C)CNC(=O)c2cccc(Br)c2)n1 (configuration not stated),-8%
CCCSC1=N/C(=C\C=C\c2ccco2)C(=O)S1,?
COc1ccc(CC(=O)N(Cc2ccccc2)c2ccccc2)cc1S(=O)(=O)N1CCOCC1,-10%
COc1ccc(CC(NC(C)=O)C(=O)NC2CCN(c3c4c(nc5ncnn35)CCC4)CC2)cc1OC (configuration not stated),-3%
CNS(=O)(=O)c1ccc(N2CCCC2)c([N+](=O)[O-])c1,-19%

# A portion of the library (hit frequency here may not be typical).
